# From PubChem
# HCMV NEC inh – inhibitors of HCMV UL50-UL53 interaction, biochemical, HTRF; HCMV UL50-UL53 nuclear egress complex (human cytomegalovirus); normalized percent inhibition; inhibition, % (test concentration not listed); 190,000 compounds, 0.15% hits;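 active = both replicates at 50% or more, plus weaker picks with an unusually low signal ratio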;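 note: stock transfer was 100 nL into about 20 µL; 0% = negative control wells and 100% = wells with untagged competitor protein; inactives centre near -12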
# GIV Gai3 FP – inhibitors of GIV peptide binding to Galpha-i3, primary screen, biochemical, fluorescence polarization, FITC-GIV GBA peptide, rat Galphai3. 90 min; active compounds read low; scaled: aluminum fluoride 0%, vehicle 100%. 210,000 compounds, 0.42% hits. percent of control (FP), % (test concentration not listed);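 active = replicate mean at 85% of control or lower, very high polarization wells dropped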;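 note: lower values mean more displacement of the GIV peptide from Galpha-i3; wells of about 15 µL received 100 nL stock; the first replicate is given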
# Target sequence (P08753 whole entry, looked up): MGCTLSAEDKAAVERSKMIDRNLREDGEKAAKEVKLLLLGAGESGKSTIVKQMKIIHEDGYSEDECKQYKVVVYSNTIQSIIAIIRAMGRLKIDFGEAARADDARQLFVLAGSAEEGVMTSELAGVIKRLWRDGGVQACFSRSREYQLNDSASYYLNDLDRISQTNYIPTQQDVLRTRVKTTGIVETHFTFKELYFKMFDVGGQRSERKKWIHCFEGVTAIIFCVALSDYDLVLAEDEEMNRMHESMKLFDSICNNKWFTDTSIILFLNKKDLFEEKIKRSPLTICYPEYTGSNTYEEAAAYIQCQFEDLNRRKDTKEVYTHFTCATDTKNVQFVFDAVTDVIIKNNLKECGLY
# Sa growth inh – S. aureus growth inhibition at 42 and 30 °C, primary screen, LtaS inhibitor project, RN4220, two temperatures. OD600, 20 h, 42 °C; active compounds read low. relative growth, % (test concentration not listed). 170,000 compounds, 0.53% hits. AID 720641, 2013;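 active = growth at 42 °C up to 50% and 20 or more points under that at 30 °C, or under 10% at both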;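 note: 300 nL library stock went into each well; scaled to the means of positive and negative controls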
# Sa growth inh second temp – also measured in Sa growth inh; calls as there; relative growth, %; measured here: growth at 30 °C;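 optical density after 20 h as mean of two plates; 100% = untreated growth and lower means inhibition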
# * marks the source's active call; other numbers are inactive results; · = no result given.
# Value order: HCMV NEC inh, GIV Gai3 FP, Sa growth inh, Sa growth inh second temp
CCSc1sc(C(=O)O)c(-c2cccs2)c1C#N
  -62, 101, 79, 89
CCn1c(=O)c(=O)[nH]c2cc(C(=O)NC3CCCc4ccccc43)ccc21 (stereo not drawn)
  -15, ·, 94, 88
COc1cc(CN(C(=O)c2cc3ccccc3oc2=O)C2CCS(=O)(=O)C2)cc(OC)c1OC (stereo not drawn)
  -34, 104, 107, 87
CCn1cc2nc(SCc3cccc(C(F)(F)F)c3)n(Cc3ccc(OC)cc3)c(=O)c2n1
  ·, 96, 101, 92
COc1cn(-c2ccccc2)nc1C(=O)NCc1ccc(C)cc1
  -27, ·, 84, 92
CN(C)CCNC(=O)Cn1c(=O)c2cccn2c2ccc(F)cc21
  12, 100, 111, 105
O=C(CN1CCN(c2cccc(Cl)c2)CC1)NC1CCCc2ccccc21 (stereo not drawn)
  -20, ·, 70, 42
CCCN1CCN(C(=O)c2cc3c(=O)n(Cc4ccc(OC)cc4)ccc3nc2C)CC1
  6, 104, ·, ·
Cc1ccc2c(c1)N(C(=O)CN1CCCN(Cc3ccccc3Cl)S1(=O)=O)CCO2
  -16, 100, ·, ·
O=C1C2C3C=CC(C3)C2C(=O)N1/N=C/c1ccccc1O (stereo not drawn)
  ·, 106, 91, 86
O=c1[nH]nc(-c2cccs2)cc1CC1CCCCC1
  -21, 101, 104, 89
COc1ccc(CCNC(=O)c2cn(C)c3ccc(S(=O)(=O)N(C)C4CCCCC4)cc3c2=O)cc1OC
  -16, 102, 101, 89
Cc1cc(NC(=O)CSc2nc(-c3ccccc3C)nc3c2c(=O)n(C)c(=O)n3C)no1
  ·, 99, 68, 91
O=C(NCCc1ccc(Cl)cc1)c1cc(=O)[nH]c2ccc(Br)cc12
  ·, 97, 95, 87
CNC(=S)N1CCN(C(c2ccccc2)c2ccccc2)CC1
  2, 99, 116, 96
Cc1c2cnn(CC(=O)NCc3ccc(Cl)cc3)c(=O)c2c(C)n1Cc1ccc(F)cc1
  -18, 101, 111, 71
Cc1ccc2cccc(NC(=O)c3cccnc3)c2n1
  -21, 106, ·, ·
Cc1cc(-c2csc(NC3=NCCCCC3)n2)c(C)n1Cc1ccccc1
  -29, ·, 103, 87
CN(C)c1cccc(C(=O)Nc2nc3ccc(S(=O)(=O)NC(C)(C)C)cc3s2)c1
  ·, 97, 83, 78
COc1cc(C(=O)NCC(c2cccnc2)N2CCOCC2)cc(OC)c1OC (stereo not drawn)
  ·, 103, 105, 83
COC(=O)C1=C(C)N=c2s/c(=C/c3ccc(OC)c(OC)c3)c(=O)n2C1c1ccc(OC(C)=O)cc1 (stereo not drawn)
  -6, 115, ·, ·
O=C(Cc1noc2ccccc12)NCc1ccccc1
  -4, 101, 101, 94
O=C1CCCN1c1ccc(S(=O)O)cc1
  7, 104, 113, 105
CC(C)CCNC(=O)Cn1cc(S(=O)(=O)Cc2ccc(F)cc2)c2ccccc21
  ·, 103, 101, 91
CCOc1ccc(NC(=O)Nc2nnc(N3CCCCC3C)s2)cc1 (stereo not drawn)
  -24, 102, 120, 91
CSc1sc(C#N)c(C)c1-c1ccn(C(=O)c2ccc(Cl)cc2)n1
  -18, 101, 82, 85
COc1ccc(CN(C)C(=O)c2cccc(C)c2)cc1OC
  5, ·, 99, 94
CC(C)CCN(C(=O)Nc1ccc(Cl)c(Cl)c1)C1CCN(C(C)C)CC1
  ·, 102, 155, 86
COc1ccc(NC(=O)c2cnc3cc(C)ccn3c2=O)c(OC)c1
  4, 106, 93, 82
COCCCNC(=O)c1ccc(Cn2c(=O)c3ccccc3n(Cc3ccc(Cl)cc3)c2=O)cc1
  -1, 100, 97, 94

# Part of the list above, tab-delimited:
smiles	HCMV NEC inh	GIV Gai3 FP	Sa growth inh	Sa growth inh second temp
COc1ccc(CCNC(=O)c2cn(C)c3ccc(S(=O)(=O)N(C)C4CCCCC4)cc3c2=O)cc1OC	-16	102	101	89
Cc1cc(NC(=O)CSc2nc(-c3ccccc3C)nc3c2c(=O)n(C)c(=O)n3C)no1	·	99	68	91
O=C(NCCc1ccc(Cl)cc1)c1cc(=O)[nH]c2ccc(Br)cc12	·	97	95	87
CNC(=S)N1CCN(C(c2ccccc2)c2ccccc2)CC1	2	99	116	96
Cc1c2cnn(CC(=O)NCc3ccc(Cl)cc3)c(=O)c2c(C)n1Cc1ccc(F)cc1	-18	101	111	71
Cc1ccc2cccc(NC(=O)c3cccnc3)c2n1	-21	106	·	·
Cc1cc(-c2csc(NC3=NCCCCC3)n2)c(C)n1Cc1ccccc1	-29	·	103	87
CN(C)c1cccc(C(=O)Nc2nc3ccc(S(=O)(=O)NC(C)(C)C)cc3s2)c1	·	97	83	78
COc1cc(C(=O)NCC(c2cccnc2)N2CCOCC2)cc(OC)c1OC (stereo not drawn)	·	103	105	83
COC(=O)C1=C(C)N=c2s/c(=C/c3ccc(OC)c(OC)c3)c(=O)n2C1c1ccc(OC(C)=O)cc1 (stereo not drawn)	-6	115	·	·
O=C(Cc1noc2ccccc12)NCc1ccccc1	-4	101	101	94
O=C1CCCN1c1ccc(S(=O)O)cc1	7	104	113	105
CC(C)CCNC(=O)Cn1cc(S(=O)(=O)Cc2ccc(F)cc2)c2ccccc21	·	103	101	91
CCOc1ccc(NC(=O)Nc2nnc(N3CCCCC3C)s2)cc1 (stereo not drawn)	-24	102	120	91
CSc1sc(C#N)c(C)c1-c1ccn(C(=O)c2ccc(Cl)cc2)n1	-18	101	82	85
COc1ccc(CN(C)C(=O)c2cccc(C)c2)cc1OC	5	·	99	94

# (listing goes on)
# Value order: HCMV NEC inh, GIV Gai3 FP, Sa growth inh, Sa growth inh second temp
Cc1nc(Sc2ncn[nH]2)c2sc(=S)n(-c3ccccc3)c2n1
  37, 111, 110, 90
CC1(C(=O)NC2CCCC2)CCC(=O)N1C1CCCC1 (stereo not drawn)
  -17, 106, ·, ·
O=C(O)CCN1C(=O)SC(Nc2ccc(Cl)cc2)C1=O (stereo not drawn)
  9, 104, 95, 95
Cc1ccc(Cn2cc(CCC(=O)NC3CCC(C)CC3)c3ccccc32)cc1 (stereo not drawn)
  ·, 113, 108, 109
CC1=C(C)CC2C(=O)N(c3ccc4c(c3)OCO4)C(=O)C2C1 (stereo not drawn)
  3, 98, 90, 88
COC(=O)c1c(SCC(=O)Nc2cccc(Cl)c2C)[nH]c2ccccc2c1=O
  ·, 99, 92, 88
O=C(O)CCc1cn(CCC(=O)O)cn1
  2, ·, 80, 112
CCn1cnc2cc(NCc3ccncc3)ccc21
  -2, 101, 88, 82
CCC(C)NC(=O)Cn1c(=O)n(CCCCCC(=O)NCc2ccccc2Cl)c(=O)c2sccc21 (stereo not drawn)
  15, 109, 98, 94
Cc1nc2ccc(S(=O)(=O)NC(CC(C)C)C(=O)NCc3cccs3)cc2s1 (stereo not drawn)
  0, 97, 93, 81
O=C(Nc1nnc(CCOCCc2nnc(NC(=O)c3ccc([N+](=O)[O-])cc3)s2)s1)c1ccc([N+](=O)[O-])cc1
  -51, 105, ·, ·
COC(=O)c1c(SC)nc2ccccc2c1OCc1ccccc1C
  ·, 97, 81, 81
COc1ccc(Cl)cc1N1C(=O)CC(NC(C)(C)C)C1=O (stereo not drawn)
  -18, 112, 109, 93
Cn1cc(S(=O)(=O)N2CCc3ccccc32)cc1C(=O)N1CCOCC1
  -22, 102, 92, 86
Cc1cccc(C(=O)N2CCN(c3cc(=O)n4nc(-c5ccccc5)sc4n3)CC2)c1
  9, 104, ·, ·
CSc1ccccc1NC(=O)CN1CCN(C(C)=O)CC1
  2, ·, 85, 89
O=C1CCCN1C(=O)CSc1nnc(-c2ccccc2)c(-c2ccccc2)n1
  -45, ·, 85, 90
CCOC(=O)C(Cc1ccccc1)N1C(=O)c2ccccc2C1=O (stereo not drawn)
  -41, 96, 89, 100
CCC(=O)Nc1cc2nn(-c3ccc(Cl)cc3)nc2cc1C
  -13, 105, 88, 93
CCN1CCN(c2ncnc3sc(C(=O)N4CCCC4)c(C)c23)CC1
  -10, 103, 106, 94
O=C(O)CCCCc1cccs1
  26, 102, 112, 77
Cc1ccccc1N1CCn2c1nc1c2c(=O)n(CC(=O)O)c(=O)n1C
  -7, 100, ·, ·
CC(=O)Nc1ncc2c(n1)CC(c1ccco1)CC2=O (stereo not drawn)
  -16, 97, 84, 81
CC1=C(C(=O)Nc2ccccc2)C(c2ccccc2Cl)n2nnnc2N1 (stereo not drawn)
  -2, 105, ·, ·
CC(C)(C)C1CCc2c(sc3nc(CCC(=O)N4CCCC4)[nH]c(=O)c23)C1 (stereo not drawn)
  0, 98, ·, ·
CC(=O)c1ccc(NC(=O)CCSc2nc(-c3ccco3)cc(C(F)(F)F)n2)cc1
  -36, 109, 97, 90
CCCCCCSc1nc(N)c2c3c(sc2n1)CCCC3C (stereo not drawn)
  -38, 108, 95, 88
CN(C)S(=O)(=O)N1CCN(C(=O)c2cccs2)CC1
  -11, 103, 94, 92
O=C(C1CC1)N1CCc2cc(Br)cc(S(=O)(=O)NCCc3ccccc3Cl)c21
  ·, 108, 138, 75
Cc1onc(-c2ccccc2Cl)c1C(=O)NC1=NCCS1
  -6, ·, 111, 53

# Looked up by structure from the list above:
# Value order: HCMV NEC inh, GIV Gai3 FP, Sa growth inh, Sa growth inh second temp
CCCCCCSc1nc(N)c2c3c(sc2n1)CCCC3C (stereo not drawn)
  -38, 108, 95, 88
CC1=C(C(=O)Nc2ccccc2)C(c2ccccc2Cl)n2nnnc2N1 (stereo not drawn)
  -2, 105, ·, ·

# Later entries:
# Value order: HCMV NEC inh, GIV Gai3 FP, Sa growth inh, Sa growth inh second temp
NC(=O)c1sc(=S)n2c1[nH]c(=O)c1cc(Cl)ccc12
  -56, 93, ·, ·
CCc1ccc(N(CC(=O)N=Nc2c(O)[nH]c3ccccc23)S(C)(=O)=O)cc1
  -60, 98, 105, 88
CNC1CCC(C(F)(F)F)N(C)C1=O (stereo not drawn)
  -12, ·, 97, 90
Cc1ccc(Cl)cc1NC(=O)c1nnn(-c2ccccc2)c1N
  -30, 101, ·, ·
CC(C(=O)NC1CC2CCC1C2)N(c1ccccc1)S(C)(=O)=O (stereo not drawn)
  -19, 98, 98, 85
Cc1ccccc1C(=O)NCc1ccc2c(c1)CCO2
  -22, 105, 96, 89
CCOC(=O)c1c(C)[nH]c(C(=O)N2CCC(CC(=O)NCc3ccc(OC(C)C)cc3)CC2)c1C
  -12, 108, ·, ·
N#Cc1cccc(NC(=O)CCNS(=O)(=O)c2ccc3c(c2)CCN3C(=O)C2CC2)c1
  ·, 104, 117, 92
Oc1ccc(Cl)cc1C1=NC2(CCNCC2)NC(c2ccccc2O)C1 (stereo not drawn)
  -33, 102, ·, ·
COc1ccc(N2C(=O)NC(=O)/C(=C/c3ccc(-c4ccc(C(=O)O)cc4)o3)C2=O)cc1
  -6, 107, ·, ·
COc1ccc(C2CCCN2Cc2cc(OC)c(OC)c(OC)c2)cc1 (stereo not drawn)
  -29, 109, ·, ·
O=C(Nc1ccccc1)Nc1ccc(NC(=O)c2ccccc2O)cc1
  -2, 108, 115, 92
O=S1(=O)C[C@H](N2CCOCC2)[C@@H](S(=O)(=O)c2cccs2)C1
  -3, 92, ·, ·
CCc1ccc(NC(=O)C(=O)NCC(c2cccnc2)N2CCOCC2)cc1 (stereo not drawn)
  -16, 103, 100, 89
O=C(Nc1c(C(=O)c2ccccc2)oc2ccccc12)c1ccco1
  -5, 105, 88, 71
CCn1c(CNC(=O)c2ccc(OC)cc2)nnc1SCC(=O)Nc1ccc(OC)cc1
  3, 101, 100, 96
CN(CCOc1ccccc1)Cc1nc2ccsc2c(=O)[nH]1
  -3, ·, 126, 80
CC(C)(C)C(=O)NC(c1ccccc1)c1c(O)ccc2ccccc12 (stereo not drawn)
  ·, 101, 98, 80
CCc1nnc(NC(=O)C2CCCCC2)s1
  -7, 98, 106, 71
CCOC(=O)CCc1c(C)nc2cc(-c3cc(OC)cc(OC)c3)[nH]n2c1=O
  -23, 109, 101, 90
Cc1nn(C)c2[nH]c3c(c(=O)c12)CSC3
  -10, 111, 101, 97
COc1ccccc1N1CCN(S(=O)(=O)c2cc(C(=O)Nc3ccc(Oc4ccccc4)cc3)ccc2F)CC1
  ·, 103, 118, 95
CC(C)(C)NC(=O)CCN1C(=O)c2ccccc2S1(=O)=O
  -2, 101, 100, 100
Cc1ccc(C(=O)C2COC(=O)C2)cc1 (stereo not drawn)
  ·, 102, 116, 78
O=C(NC1CC1)c1ccc(-c2ccccc2)cc1
  -33, ·, 83, 84
Cc1ccc2ccc3cc(C(=O)Nc4ccc5c(c4)OCCO5)nc3c2[nH]1
  -6, 102, ·, ·
Cc1nn2c3c(cnc2c1-c1ccc(Cl)cc1)C(=O)CC(c1ccc(F)cc1)C3 (stereo not drawn)
  -18, 97, ·, ·
COC(=O)c1scc(C)c1NC(=O)c1cccc(C#N)c1
  -5, 100, 93, 91
c1ccc2c(c1)C(=NN1CCOCC1)c1ccccc1-2
  -61, ·, 120, 99
c1ccc(C(c2ccccc2)N2CCN(c3nn4nnnc4c4ccccc34)CC2)cc1
  -29, 100, ·, ·
O=C1c2ccccc2C(=O)N1Cn1ncc(Cl)c(Cl)c1=O
  -41, ·, 71, 89
Cc1ccc(OCc2ccc(C(=O)Nc3ncc(Br)s3)o2)cc1C
  -19, 106, 102, 89
NCCCn1cncn1
  -2, 102, 108, 97
COc1ccc(-c2cc(-c3ccccc3)nc(SCC(=O)N3CCCCC3)c2C#N)cc1
  23, ·, 94, 87
